# Rce1 inhib: yeast Rce1p protease inhibitors, primary screen, biochemical, fluorescence, cell-free homogeneous | CAAX prenyl protease 2 (Saccharomyces cerevisiae (strain ATCC 204508 / S288c)), Q03530 | calls only | hit rate 0.27% among 290,000 | yeast membranes, quenched prenylated peptide cleavage fluorescence;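 active means fall in fluorescence gain of 50% or more versus controls, with final raw signal at or below 3038400; inconclusive means same 50% fall but final raw signal above 3038400; inactive means fall in fluorescence gain under 50%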;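 further: plate controls were neutral control wells for no effect and wells lacking membranes for full effect; tested at 10 µM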
# Target sequence (Q03530 whole entry, looked up): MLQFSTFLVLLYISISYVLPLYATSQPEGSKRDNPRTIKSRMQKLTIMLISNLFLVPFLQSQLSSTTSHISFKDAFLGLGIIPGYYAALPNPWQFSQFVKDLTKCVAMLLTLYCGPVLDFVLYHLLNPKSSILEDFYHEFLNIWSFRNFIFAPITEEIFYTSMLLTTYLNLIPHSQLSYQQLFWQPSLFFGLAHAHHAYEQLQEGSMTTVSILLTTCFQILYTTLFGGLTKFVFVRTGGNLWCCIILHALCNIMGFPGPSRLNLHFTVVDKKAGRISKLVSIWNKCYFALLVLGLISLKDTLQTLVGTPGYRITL
# UUG fidelity: modulators of yeast start codon fidelity, primary screen, whole organism, S. cerevisiae, single point, plate reader. activity score, % at 18.7 µM. S. cerevisiae UUG-firefly luciferase reporter, luminescence/redox ratio. hit rate 0.13% among 350,000;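 active means replicate mean at a twofold rise or more, about +100% in these data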;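 further: firefly luciferase made from a UUG start codon reports start codon fidelity; reporter light over untreated wells divided by growth signal over untreated wells; some hits fall short of that in this replicate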
# eIF4H inh: human eIF4H binding inhibitors, primary screen, translation initiation inhibitor project, biochemical, uHTS, fluorescence polarization; inhibition, % at 35 µM; hit rate 0.94% among 290,000; Eukaryotic translation initiation factor 4H (Homo sapiens), Q15056; AID 2012, 2009; eIF4H fluorescence polarization binding assay;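 active means 50% or more with normal probe brightness, or confirmed in later tests; inconclusive means above 50% with abnormal brightness, or retests that disagree; inactive means below 50% or failed in later tests; about a fifth of its hits are not listed in these tables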;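 further: calls also rest on retests at 20 µM and on dose response follow-up; 0% = protein and probe with vehicle and 100% = probe without protein; strong numbers were not always called active; many hits fall short of the cut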
# CSC inhib: cancer stem cell viability inhibitors, primary screen, luminescence. cancer stem cell-like cells viability. inhibition, % at 7.5 µM. hit rate 1.1% among 300,000. AID 2717, 2010;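 active means mean at 75% or more and at least half the replicates too; inconclusive means mean and replicates disagree; tested in HMLE shEcad cells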;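 further: 0% = median of negative and 100% = median of positive control wells; the first replicate is given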
# HIV Env fusion: inhibitors of HIV-1 Env-driven cell-cell fusion, primary screen, HeLa-JRFL effector, CEM21 target cells, luciferase. inhibition, % at 12.3 µM. hit rate 1.1% among 360,000;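 active means mean replicate inhibition score of at least 50 and every replicate individually at or above 50; inconclusive means only one of the two criteria met; inactive means mean below 50 and not all replicates reaching 50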;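 further: 0% = plate neutral controls and 100% = maraviroc near 300 nM; one replicate is shown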
# PABP polyA inh: PABP poly(A) RNA binding inhibitors, primary screen, biochemical, fluorescence polarization, uHTS; Polyadenylate-binding protein 1 (Homo sapiens), P11940; inhibition, % at 35 µM; hit rate 1% among 290,000;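 active means 50% or more with normal probe brightness, or confirmed in later tests; inconclusive means above 50% with abnormal brightness, or retests that disagree; inactive means below 50% or failed in later tests; about a fifth of its hits are not listed in these tables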;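 further: calls also rest on retests at 20 µM and on dose response follow-up; controls were probe without protein and protein plus probe with vehicle; some compounds called inactive have numbers as strong as hits; many hits fall short of the cut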
# Target sequence (P11940 whole entry, looked up): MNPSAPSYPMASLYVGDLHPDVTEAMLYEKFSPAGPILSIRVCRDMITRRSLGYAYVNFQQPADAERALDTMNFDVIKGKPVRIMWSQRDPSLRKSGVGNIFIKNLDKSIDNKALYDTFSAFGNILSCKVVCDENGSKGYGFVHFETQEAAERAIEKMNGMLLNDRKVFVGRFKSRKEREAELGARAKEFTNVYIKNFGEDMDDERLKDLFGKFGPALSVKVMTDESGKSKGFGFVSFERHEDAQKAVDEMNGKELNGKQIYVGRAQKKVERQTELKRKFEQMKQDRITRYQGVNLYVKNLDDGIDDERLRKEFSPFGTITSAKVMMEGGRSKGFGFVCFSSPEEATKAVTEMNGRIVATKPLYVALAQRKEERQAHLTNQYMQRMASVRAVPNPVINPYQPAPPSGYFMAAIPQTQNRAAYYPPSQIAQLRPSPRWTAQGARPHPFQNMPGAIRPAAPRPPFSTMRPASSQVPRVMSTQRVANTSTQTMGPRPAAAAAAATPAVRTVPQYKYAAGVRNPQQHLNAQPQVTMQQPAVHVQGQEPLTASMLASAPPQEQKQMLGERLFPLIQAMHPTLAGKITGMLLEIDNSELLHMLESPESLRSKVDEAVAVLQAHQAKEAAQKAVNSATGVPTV
# MT1-MMP act inh: blockers of MT1-MMP proenzyme processing, primary screen, HT1080 RFP-PRO-GFP cells, GFP/RFP fluorescence; hit rate 0.061% among 360,000; GFP/RFP ratio fluorescence, overnight; percent of plate control window, DMSO zero; GFP/RFP ratio change, % at 20 µM; AID 651647, 2012;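 active means GFP/RFP ratio change of at least 30% with cell ATP level not reduced by more than half and red fluorescence within 50% of control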; further: strong numbers were not always called active
#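 Assay system: HT1080 cells carrying an RFP-PRO-GFP reporter | Dosing: Single dose of 20 µM compound, 1% DMSO final | Incubation: Cells overnight before dosing, compound overnight, 37 °C, 5% CO2 | Evaluation: GFP/RFP fluorescence ratio | Control set: DMSO and RFP-L50D-GFP cell wells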
# eIF4H inh retest: further read-out of eIF4H inh, marked with its call; inhibition, %; compound at 20 µM; confirmation average;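 mean of two retest wells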
# PABP polyA inh retest: recorded beside PABP polyA inh, whose call it bears; inhibition, %; compound at 20 µM; confirmation repeats;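 mean of two retest wells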
# MT1-MMP act inh RFP: also measured in MT1-MMP act inh; calls as there; RFP signal change, %; measured here: RFP expression control read;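 0 = vehicle wells; hits needed this value within 50% of zero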
# * = called active by the depositor; i = inactive; ? = inconclusive; nt = not tested or not shown; & = joins results of further samples; [ ] = remark or other dose.
SMILES,Rce1 inhib,UUG fidelity,eIF4H inh,CSC inhib,HIV Env fusion,PABP polyA inh,MT1-MMP act inh,MT1-MMP act inh RFP,others
C=CCn1c(CNS(=O)(=O)c2ccc(Br)cc2)nnc1SC,i,-6,-13,1,-3,10,-2,2,
CCn1ncc(Br)c1C(=O)Nc1cc(C)ccc1F,i,-2,0,-5,nt,-2,-3,1,
CC(C)CCNC(=O)[C@H](CSCc1ccccc1)N1Cc2ccccc2C1=O,i,-6,6,-4,30,1,-14,-8,
Cc1nc2ccc(S(=O)(=O)NCC(=O)NCc3ccc4c(c3)OCO4)cc2s1,i,-4,9,nt,nt,-4,2,-1,
COc1ccccc1CN(C(=O)c1ccco1)C(C(=O)NC1CCCC1)c1ccncc1 (stereo unspecified),i,-11,10,-8,nt,5,-6,4,
Cc1ccc2nc(-c3ccc(Cl)cc3)c(CC3CCCCC3)n2c1,nt,21,nt,nt,-65,nt,-11,3,
O=C(Nc1ccnn1C1CCN(Cc2ccc(CO)o2)CC1)c1ccc2c(c1)OCO2,i,-7,-3,-13,-5,16,0,4,
O=C(Nc1nc(-c2cccc([N+](=O)[O-])c2)cs1)C(c1ccccc1)c1ccccc1,nt,nt,-12,32,nt,-1,-16,-23,
COc1ccc(OC)c(NC(=O)Nc2cc(NC(=O)Nc3cc(OC)ccc3OC)c(C)nc2C)c1,i,nt,6,-14,13,-10,3,4,
COc1ccc(C(=O)Nc2ccnn2C2CCN(Cc3cccnc3)CC2)cc1,i,-6,-10,0,2,-13,1,7,
CS(=O)(=O)N1CC2CCCN2c2ccc(C(F)(F)F)cc21 (stereo unspecified),i,-15,2,-5,2,-1,5,3,
Cc1noc(C)c1COc1ccc(C(=O)N2CCN(S(=O)(=O)c3cccc(F)c3)CC2)cc1,nt,-2,nt,-11,7,nt,2,-6,
O=C(COC(=O)C1CCCCC1)Nc1ccc(N2CCCCC2)cc1,i,-6,5,-15,nt,7,3,5,
COc1cc(SC)ccc1C(=O)OC1CCOC1=O (stereo unspecified),i,-6,0,-22,-65,8,0,2,
COc1ccc(OCCn2ccnc2C)cc1,i,11,19,nt,4,16,4,6,
Cc1oc(-c2ccccc2Cl)nc1CS(=O)CC(=O)NC1CC1 (stereo unspecified),i,-18,10,-5,-3,10,0,-1,
Cn1nc(C(=O)Nc2cccc(Cl)c2)cc1C(=O)Nc1cccc(Cl)c1,i,6,-4,39,-23,1,-5,-11,
O=C(NCC1CCCO1)c1cc(C(=O)C2CC2)c[nH]1 (stereo unspecified),i,-14,2,-4,-49,6,4,1,
COCCCN(C(=S)NC(=O)C12CC3CC(CC(C3)C1)C2)c1c(N)n(Cc2ccccc2)c(=O)[nH]c1=O,i,nt,-4,0,84*,-6,-1,-3,
Cn1ncc(Cl)c1C(=O)Nc1nnc(C2CC2)s1,i,-14,-2,-8,-7,-5,1,-1,
Cc1ccccc1NC(=O)COc1ccc2c(c1)OC(C)(C)CC2=O,i,-11,-5,nt,11,3,-3,-2,
CCOC(=O)C1(CCOc2ccccc2)CCN(Cc2cc(OC)c(O)cc2Cl)CC1,i,-14,-12,10,-28,-7,1,-12,
O=C(CCCc1nc(-c2ccc(Cl)cc2)no1)NC1CCCC1,i,-12,1,33,34,12,7,-29,
O=C(CSc1n[nH]c(-c2ccccc2)n1)c1ccc(O)c(O)c1,i,-16,6,nt,nt,14,-1,-6,
CC(C)N1CC23C=CC(O2)C(C(=O)OCc2ccccc2)C3C1=O (stereo unspecified),i,-14,4,nt,15,-5,2,4,
Fc1ccc(-n2c(-c3ccc4c(c3)OCO4)n[nH]c2=S)cc1Cl,i,nt,10,-32,21,0,2,7,
Oc1ccc(C(c2nnnn2C2CCCCC2)N2CCOCC2)cc1 (stereo unspecified),i,10,-4,-4,-39,0,1,4,
Cc1cccc(NC(=O)NNC(=O)c2nn(C)cc2Br)c1,i,-12,16,-12,nt,53,-1,2,eIF4H inh retest=-2;PABP polyA inh retest=-1
c1ccc(-c2nc(N3CCNCC3)nc3ccccc23)cc1,i,-30,32,-2,-143,2,-8,4,
COc1cccc(CNC(=O)c2cc(S(=O)(=O)N3CCOCC3)cn2C)c1,i,-12,-1,-1,-6,18,14,10,
COc1ccc(C(=O)OCC(=O)Nc2c(C)n(C)n(-c3ccccc3)c2=O)cc1,nt,3,nt,-14,nt,nt,-2,3,
O=C(Cc1c[nH]c2ccccc12)NNC(=O)c1ccccc1,i,nt,10,-9,nt,-8,-2,5,
Cc1c(C#N)c2ccccc2n1C,i,nt,-6,-10,-2,5,0,1,
Cc1ccc(-c2c3c(=O)n(C)c(=O)n(C)c3cn2Cc2ccccc2)cc1,i,1,-5,7,-158,-16,2,4,
O=C(c1ccco1)N1CCN(Cc2nnnn2C2CCCCC2)CC1,i,7,0,13,-11,-2,-1,1,
O=Cc1ccccc1-c1cn(CN2C(=O)c3ccccc3C2=O)nn1,i,-6,-9,-1,nt,2,-1,-1,
CCOc1ccc(N(C(=O)CNC(=O)c2ccco2)C(C(=O)NC2CCCC2)c2ccncc2)cc1 (stereo unspecified),i,nt,-3,4,19,-3,1,1,
Cc1ccc(C(=O)N(c2ccccn2)C(C)c2ccco2)cc1 (stereo unspecified),i,-5,-1,-5,nt,6,-8,-4,
O=C(Cc1ccccc1)N1CCN=C1SCc1cccc([N+](=O)[O-])c1,i,nt,-7,1,7,2,2,4,
COc1ccc(C)cc1CN1C(=O)c2ccccc2C1=O,i,1,9,-6,-3,-3,-2,-3,

# The final two records of the part above lead into the next:
SMILES,Rce1 inhib,UUG fidelity,eIF4H inh,CSC inhib,HIV Env fusion,PABP polyA inh,MT1-MMP act inh,MT1-MMP act inh RFP,others
O=C(Cc1ccccc1)N1CCN=C1SCc1cccc([N+](=O)[O-])c1,i,nt,-7,1,7,2,2,4,
COc1ccc(C)cc1CN1C(=O)c2ccccc2C1=O,i,1,9,-6,-3,-3,-2,-3,
COc1ccccc1N1CCN(CCN(C(=O)C2CCCCC2)c2ccccn2)CC1,i,-17&-27,nt,-8,6&41,nt,2&5,-2&-4,
C=CCOc1ccccc1/C=C/C(=O)O,i,-9,-17,-6,-242,-1,9,6,
O=C(COc1ccc(S(=O)(=O)NC2CCCCC2)cc1)N1CCN(c2ccc(F)cc2)CC1,nt,20,-4,-10,?,2,-1,-26,
CCOc1ccc(S(=O)(=O)Nc2cc(NS(=O)(=O)c3ccc(OCC)cc3)cc(C(=O)O)c2)cc1,nt,3,nt,-2,nt,nt,4,4,
COc1ccc(NC(=O)CN(C)CC(=O)Nc2cccc(C(C)=O)c2)cc1,i,-10,-9,3,2,-9,-4,2,
CCCS(=O)(=O)NC(=O)C1(C)CCCN(C(=O)c2cc(C(C)(C)C)nn2C)C1 (stereo unspecified),nt,-2,nt,nt,8,nt,11,7,
Cc1ccc(-c2ccc(OC(=O)c3ccc(=O)[nH]c3)c(C)c2)cc1,i,-12,-14,76*,-26,-14,7,-3,
CC(C)N(Cc1nc(-c2ccccc2)no1)C(=O)CN1C(=O)c2ccccc2C1=O,i,4,5,-1,3,-6,-1,0,
CNC(=O)c1cc(S(=O)(=O)NC2CCCCCC2)ccc1C,i,-4,-7,nt,8,-11,0,-2,
CCOC(=O)Cn1nnc(-c2cccc(OC)c2)n1,i,-29,-12,-7,-1,8,1,-1,
O=C(C1=NN(c2ccccc2)C2C(=O)N(c3ccccc3Cl)C(=O)C12)c1ccccc1 (stereo unspecified),i,-23,?,-2,-32,4,-132,3,
COc1ccc(NC(=O)Nc2ccc3c(c2)C(=O)N([C@H](C)CO)C[C@H](C)[C@@H](CN(C)C(=O)NC2CCCCC2)O3)cc1,nt,13&21,nt,-13,1[16.7 µM],nt,5,9,
COCc1cc(=O)[nH]c(/N=C(\N)Nc2ccccc2C)n1,i,-7,-6,-24,nt,-4,-2,4,
N#CC1=C(N)Oc2c(ccc3cccnc23)C1c1cccnc1 (stereo unspecified),i,-32,30,68,24,5,-20,-19,
CCC(C)[C@H](NC(=O)Nc1cccc(Br)c1)C(=O)OC (stereo partly specified),i,nt,-8,-7,15,-13,0,-1,
COc1ccc(/C=N/NC(=O)c2ccn[nH]2)cc1CN1CCOCC1,i,-12,1,-4,5,4,-3,-2,
COc1cc(NS(=O)(=O)c2ccc(F)cc2)c(OC)cc1NC(C)=O,i,nt,-14,-16,nt,5,2,4,
Cc1cccc(C)c1NC(=O)C(c1ccccc1)N1CCN(C(=O)c2ccco2)CC1 (stereo unspecified),i,nt,-8,5,nt,-9,1,7,
CN1CCN(c2nc(Nc3ccccc3)nc(N)c2[N+](=O)[O-])CC1,i,nt,6,-19,7,-2,8,3,
COc1ccc(C(=O)/C=C/c2ccccc2)c(OC)c1,i,-21,-6,-11,nt,4,3,-17,
Cc1ccc(Cn2nnc3c(=O)n(CC(=O)OCc4ccccc4)cnc32)cc1,i,-3,-3,-13,nt,11,9,1,
CCCCCC(=O)N1C[C@H](n2cc(C3CC3)nn2)[C@@H](O)C[C@@H]1c1ccc(Cl)cc1,nt,-2,nt,nt,-31,nt,4,1,
CCc1cccc(CC)c1-n1c(SCC(=O)N2CCc3ccccc3C2)nnc1-c1cccnc1,i,nt,?,17,7,-15,-14,-8,
CC(NC(=O)c1cc(Br)ccc1Br)c1ccccc1 (stereo unspecified),i,nt,-5,5,5,-4,nt,nt,
CC(C)NC(=O)CN1C(=O)C(=O)c2ccccc21,i,-2,6,3,-4,1,-8,-2,
CCCCCCCNC(=O)C1(CC2CC(c3cccc(Br)c3)=NO2)CCN(C(=O)Cc2ccc(F)cc2)CC1 (stereo unspecified),nt,-17,nt,11,nt,nt,-17,-17,
CCCC(=O)N/N=C1\CS(=O)(=O)N(C)c2ccsc21,i,-9,-4,-5,3,9,1,4,
O=[N+]([O-])c1ccc(N2CCCC2)cc1NCc1ccccc1,i,-7,-1,5,nt,-2,3,-8,
c1ccc(-c2nn[nH]n2)cc1,nt,nt,-1,-9,-9,-8,2,4,
CCOC(OCC)P(=O)(c1ccccc1)c1ccccc1,i,25,-13,-16,-41,2,2,4,
O=C(c1cccs1)N1CCN(C(=O)c2ccco2)c2ccccc2C1,i,2,-8,-9,nt,11,5,3,
NC(=O)CC(NC(=O)Cc1cccc2ccccc12)c1ccc(N2CCC(N3CCCCC3)CC2)c([N+](=O)[O-])c1 (stereo unspecified),i,-6,-11,-5,12,0,5,3,
CCCCCCS(=O)Cc1ccccc1 (stereo unspecified),i,-18,-1,0,nt,-14,2,0,
Cc1ccnc(Cc2ccccc2)n1,i,-30,2,3,-4,11,1,4,
CS(=O)(=O)N(CC(=O)NCCSCc1ccccc1Cl)c1ccccc1F,i,-6,0,-13,14,6,-2,-3,
N#C/C(=C\c1ccc(N2CCOCC2)o1)C(=O)NCC1CCCO1 (stereo unspecified),i,nt,?,-6,18,?,-55,5,
